GIRK2 act – opens human GIRK2 potassium channels; HEK293-GIRK2 thallium flux, Thallos fluorescence; calls only for hits at 25 µM; actives 0.05% (n = 63,000); AID 1259325;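 active = among the strongest 0.2% of first-round signals and kept after retests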;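 note: first round at about 10 µM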
Target sequence (P48051 whole entry, looked up): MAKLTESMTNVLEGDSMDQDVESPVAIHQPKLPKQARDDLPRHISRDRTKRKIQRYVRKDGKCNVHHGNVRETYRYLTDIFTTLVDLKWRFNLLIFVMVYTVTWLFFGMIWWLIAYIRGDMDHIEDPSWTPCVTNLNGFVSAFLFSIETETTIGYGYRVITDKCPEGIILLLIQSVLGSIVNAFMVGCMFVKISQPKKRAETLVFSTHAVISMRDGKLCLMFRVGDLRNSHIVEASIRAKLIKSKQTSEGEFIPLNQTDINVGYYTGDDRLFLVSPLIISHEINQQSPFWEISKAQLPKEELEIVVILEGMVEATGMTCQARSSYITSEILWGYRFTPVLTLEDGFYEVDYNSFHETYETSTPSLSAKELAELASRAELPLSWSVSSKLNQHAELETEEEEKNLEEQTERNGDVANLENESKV
Calls only; i = inactive. Only part of the results is shown; count on the stated rates, not on these rows.

SMILES	GIRK2 act
CS(=O)(=O)Nc1cccc(NC(=O)c2ccc3nsnc3c2)c1	i
O=C(C1CC1)N1CCN(c2ccc(-c3noc(C4CC4)n3)cn2)CC1	i
CCN(CC)C(=O)c1cnc2nc(C)ccc2c1Nc1cccc(SC)c1	i
Cc1nc(NC(=O)C(C)n2nc(-c3ccc(F)cc3)ccc2=O)sc1C(=O)N(C)C (centres undefined)	i
CC(C)NC(=O)Cn1nc(S(=O)(=O)c2ccc(Br)cc2)ccc1=O	i
CCOc1ccc(-c2noc(-c3nnn(-c4ccc(Br)cc4)c3N)n2)cc1	i
Cc1cccc(-c2csc3c(=O)[nH]c(N4CCC(C(=O)NCCc5ccccc5)CC4)nc23)c1	i
COc1ccc(C(O)=C2C(=O)C(=O)N(c3nccs3)C2c2cccc(Cl)c2)cc1C (centres undefined)	i
COc1ccc(OC)c(-c2cc(C(=O)NC(C)Cc3ccco3)n(C)n2)c1 (centres undefined)	i
COc1ccc(CNC(=O)NCC(C)(O)CCSC)cc1OC (centres undefined)	i
O=C(CCn1ccc(=O)[nH]c1=O)N1CCCC(c2nnc(-c3ccc4c(c3)OCO4)o2)C1 (centres undefined)	i
COc1ccc(/C=C\C(=O)Nc2cc(C3CC3)nn2-c2nc(C)cc(=O)[nH]2)cc1OC	i
CCCCS(=O)(=O)N1CC2(COC(C)(C)OC2)C1	i
O=C(NCCN1CCN(c2ccccc2)CC1)c1cccc(C(F)(F)F)c1	i
CCOC(=O)[C@@H](CCc1ccccc1)N[C@@H](C)C(=O)N1CCC[C@H]1C(=O)O	i
Cc1noc(-c2ccc(NC(=O)c3cc4ccccc4oc3=O)cc2)n1	i
CC(=O)OCC1OC(O[C@H]2CC[C@]34C[C@]35CC(O)[C@]3(C)[C@@H]([C@H](C)CC/C=C(\C)C(=O)O)C(O)C[C@@]3(C)C5CC[C@H]4C2(C)C)C(O)C(O)C1OC1OCC(O)C(O)C1O (some centres undefined)	i
N#Cc1ccc(OC2CCN(C(=O)c3cc4ccccc4o3)CC2)nc1	i
CC(=O)c1ccc(NS(=O)(=O)N2CCOCC2)cc1	i
COc1ccc(CNC(=O)Cn2nc3c4cc(-c5ccc(Cl)cc5)nn4ccn3c2=O)cc1	i
COc1ccc(CNC(=O)CCn2cnc3c([nH]c4ccccc43)c2=O)c(OC)c1	i
COc1ccc(CC(=O)N2CCCC(c3nnc(-c4ccccc4F)s3)C2)cc1OC (centres undefined)	i
COC(=O)c1ccc(C(=O)NC2CNC(=O)C2)cc1 (centres undefined)	i
COCC(=O)N1CCN(c2ncnc3c2nnn3-c2ccccc2)CC1	i
CCc1ccc(NC(=O)CSc2nccc(N3CCN(c4ccccc4OC)CC3)n2)cc1	i

The last 2 entries of the section above are carried over, then new ones follow:
SMILES	GIRK2 act
COCC(=O)N1CCN(c2ncnc3c2nnn3-c2ccccc2)CC1	i
CCc1ccc(NC(=O)CSc2nccc(N3CCN(c4ccccc4OC)CC3)n2)cc1	i
CC(=O)O[C@H]1C[C@@H]2CC[C@@H]3[C@H](CC[C@@]4(C)[C@H]3C[C@H]([N+]3(C)CCCCC3)[C@@H]4OC(C)=O)[C@@]2(C)C[C@@H]1N1CCCCC1	i
COc1ccccc1NC(=O)CN1C(=O)C2(SCC(=O)N2c2ccc(F)c(F)c2)c2ccccc21 (centres undefined)	i
N#Cc1ccc(OC2CCN(C(=O)NCc3ccc(Cl)cc3)CC2)nc1	i
CCc1nc(N)n(CC(=O)Nc2ccccc2C(=O)OC)c(=O)c1C	i
CCn1cnc2c(-c3ccccc3)cn(CC(=O)Nc3ccc(Cl)cc3F)c2c1=O	i
O=C(c1ccc(C(F)(F)F)cc1)N1CCC(Oc2ccccn2)CC1	i
COc1ccccc1N1CCN(CC(=O)Nc2nnc(C)s2)C1=O	i
COc1cc(C(=O)Nc2c(-c3ccccn3)c(=O)c3ccccc3n2C)cc(OC)c1OC	i
COc1ncc(NC(=O)Nc2ccc3c(c2)OCCO3)cn1	i
CN(CC#CCNC(=O)c1ccc(Cl)cc1)Cc1ccccc1	i
COc1cc2c(cc1OC)CN(S(=O)(=O)c1ccc(C(C)(C)C)cc1)CC2	i
COc1ccc(/C=C2/CCn3c2nc(=O)c2cc(OC)c(OC)cc23)cc1	i
CC1CCc2c(sc(NC(=O)C3CCN(S(=O)(=O)c4ccc(Cl)cc4)CC3)c2C#N)C1 (centres undefined)	i
Cc1cc(Cl)cc2sc(N(Cc3ccncc3)C(=O)C(C)C)nc12	i
CCC(C(=O)NCCOC)n1cc(-c2nc(C)no2)ccc1=O (centres undefined)	i
CCn1cnc2c(-c3ccccc3)cn(CC(=O)N3CCCc4ccccc43)c2c1=O	i
CCC(C(=O)N1CCN(c2ncnc3c2nnn3-c2ccc(C)cc2)CC1)c1ccccc1 (centres undefined)	i
Cc1cc(NC(=O)c2cc(Cl)sc2Cl)n(-c2nc3ccccc3s2)n1	i
COC(=O)c1ccc(NC(=O)CN2CCN(Cc3nc(-c4ccco4)cs3)CC2)cc1	i
O=C(O)CCc1nc(-c2ccccc2)c(-c2ccccc2)o1	i
Cc1ccc(/C=C/c2nn3c(-c4ccoc4C)nnc3s2)cc1	i
Cc1ccc(Cl)cc1N1CCN(C(=O)CCn2cnc3c([nH]c4ccc(F)cc43)c2=O)CC1	i
COc1cccc(N2CCN(S(=O)(=O)c3ccsc3C(=O)NCC(C)C)CC2)c1	i
Cc1c(C(=O)N2CCOCC2)nnn1-c1ccc2noc(-c3ccccc3)c2c1	i
O=c1c(-c2ccccc2)c(C(F)(F)F)oc2c3c(ccc12)OCN(C1CCS(=O)(=O)C1)C3 (centres undefined)	i

(next part)
SMILES	GIRK2 act
COc1c(C)cnc(Cn2nc3c(-c4nc(C)no4)cccn3c2=O)c1C	i
Cc1nc(-n2cccc2)sc1C(=O)N1CCN(Cc2csc(-c3ccccc3)n2)CC1	i
CCCCNC(=O)Cn1cnc2c([nH]c3ccc(C)cc32)c1=O	i
COc1ccc(-c2cc(Nc3cccc(C(C)=O)c3)ncn2)cc1	i
CN1CCN(CC(O)COCC2CC3CCC2C3)CC1 (centres undefined)	i
Cc1cc(C)n(-c2ccc(=O)n(CCNC(=O)/C=C/c3cccnc3)n2)n1	i
O=C(CN1C(=O)CCC1=O)N1CCC(Oc2ccc(C(F)(F)F)cn2)CC1	i
C=CCNC(=O)Nc1nc2c(s1)CCc1ccccc1-2	i
Cc1nc(-c2cccc(NC(=O)CCCn3cnc(-c4ccc(F)cc4)cc3=O)c2)cs1	i
COc1cccc(NC(=O)c2nnn(-c3ccc(F)c(C)c3)c2-c2cccnc2)c1	i
COc1ccc(C(=O)N2CCN(c3oc(-c4ccc(OC)c(OC)c4)nc3C#N)CC2)cc1	i
O=C(Cn1nc(-c2cccc(Br)c2)ccc1=O)NC1CCCC1	i
O=C(Nc1nnc(-c2cccs2)o1)c1ccc2nsnc2c1	i
Cn1cc(-c2cccs2)nc1CCNC(=O)Nc1ccc2c(c1)OCO2	i
NS(=O)(=O)c1ccc(-c2cc3ccncc3cc2OCc2ccccc2)cc1	i
COC(=O)c1ccccc1NC(=O)NC12CC3CC(CC(C3)C1)C2	i
COc1ccc(Cl)cc1NC(=O)Nc1cc(N2CCN(c3ccccc3)CC2)ncn1	i
COc1cc(OC)c(NC(=O)Cn2cc(-c3nc(-c4ccc(C)cc4)no3)ccc2=O)cc1Cl	i
O=C(CCn1ccc(=O)[nH]c1=O)N1CCC(Oc2ccccn2)CC1	i
O=C(Nc1ccc(Cl)cc1)N1CCCC(c2nnc(-c3cccs3)o2)C1 (centres undefined)	i
CCOc1nn(CC)cc1-c1nnc(SCC(=O)c2ccc(Cl)cc2)n1CC	i
Cc1ccc(Nc2nc(C)cc(N3CCN(C(=O)c4cnccn4)CC3)n2)cc1	i
Cc1ccc(-n2ccc(=O)c(-c3nc(-c4ccc(F)c(Br)c4)no3)n2)cc1	i
Cn1ccnc1SCC1CCN(C(=O)C2CCC2)CC1	i
O=C(Nc1cccc(-c2cnc3n2CCC3)c1)c1nc2ccccc2s1	i

Rewritten in CSV form: part of the list above.
structure,GIRK2 act
COC(=O)c1ccccc1NC(=O)NC12CC3CC(CC(C3)C1)C2,i
COc1ccc(Cl)cc1NC(=O)Nc1cc(N2CCN(c3ccccc3)CC2)ncn1,i
COc1cc(OC)c(NC(=O)Cn2cc(-c3nc(-c4ccc(C)cc4)no3)ccc2=O)cc1Cl,i
O=C(CCn1ccc(=O)[nH]c1=O)N1CCC(Oc2ccccn2)CC1,i
O=C(Nc1ccc(Cl)cc1)N1CCCC(c2nnc(-c3cccs3)o2)C1 (centres undefined),i
CCOc1nn(CC)cc1-c1nnc(SCC(=O)c2ccc(Cl)cc2)n1CC,i

Entries from the list above that have an aryl thioether with sulfur outside any ring:
SMILES	GIRK2 act
CCN(CC)C(=O)c1cnc2nc(C)ccc2c1Nc1cccc(SC)c1	i
CCc1ccc(NC(=O)CSc2nccc(N3CCN(c4ccccc4OC)CC3)n2)cc1	i
CCOc1nn(CC)cc1-c1nnc(SCC(=O)c2ccc(Cl)cc2)n1CC	i
Cn1ccnc1SCC1CCN(C(=O)C2CCC2)CC1	i

The listing picks up, starting 2 compounds before the break.
SMILES	GIRK2 act
Cn1ccnc1SCC1CCN(C(=O)C2CCC2)CC1	i
O=C(Nc1cccc(-c2cnc3n2CCC3)c1)c1nc2ccccc2s1	i
Cc1ccc(CC(=O)Nc2sc3c(c2-c2nc4ccccc4s2)CCCC3)cc1	i
CCC(NCC(O)CN(c1ccc(F)cc1)S(=O)(=O)c1ccc(C)cc1)C(=O)O (centres undefined)	i
CCCn1c(=O)c2sccc2n2c(CCCC(=O)N3CCN(c4ccc(Cl)cc4)CC3)nnc12	i
CCOCCn1c(=O)c2c(nc3n(-c4ccccc4CC)c(C)cn23)n(C)c1=O	i
Cc1c(Cl)ccc(S(=O)(=O)NCCN2CCOCC2)c1Cl	i
Cc1cc(-c2nnc(NC(=O)c3ccn(C)n3)o2)c(C)o1	i
COc1cc(Cl)c(S(=O)(=O)N2CCc3ccccc3C2)cc1Cl	i
O=C(NCC1(O)CCOc2ccccc21)c1cc(Cl)ccc1Cl (centres undefined)	i
COc1ccc(CNC(=O)c2ccc3c(=O)nc4c(-c5ccccc5)n[nH]n4c3c2)cc1	i
COc1ccc(C)cc1NC(=O)CSc1nc2sc(C)cc2c(=O)n1C	i
O=C(Cn1nc(-c2ccco2)ccc1=O)Nc1ccc(-c2ccc(=O)[nH]n2)cc1	i
Cc1nc2sc(C(c3cccc(F)c3)N3CCN(Cc4ccccc4)CC3)c(O)n2n1 (centres undefined)	i
Cc1ccc(-c2cc3c4nn(CC(=O)Nc5ccccc5F)c(=O)n4ccn3n2)cc1C	i
O=C(Nc1nc(CN2CCc3ccccc3C2)cs1)C1CC1	i
CCOc1ccc(S(=O)(=O)NCCC(O)c2cc(C)oc2C)cc1C (centres undefined)	i
CCc1ccc(Oc2cc(N3CCC(C(=O)N4CCC(C)CC4)CC3)ncn2)cc1	i
CCNS(=O)(=O)c1ccc(OC)c(C(=O)NC2CC(C)(C)NC(C)(C)C2)c1	i
O=C(CN1CCN(Cc2nc(-c3ccco3)cs2)CC1)NCc1ccco1	i
CCOc1ccccc1C(=O)N(C(=O)N1CCCCC1)c1ccc(Cl)cc1	i
O=C(NCCC(O)C1CC1)C(=O)Nc1ccccc1 (centres undefined)	i
CCOC(=O)CCn1c(=O)c2c(nc3n(-c4cccc(C)c4)c(C)cn23)n(C)c1=O	i
COc1ccc(Cn2cc(-c3nc(-c4ccc(Cl)cc4)no3)c(=O)c3ccc(C)nc32)cc1F	i
CCCCC/C=C\C/C=C\C/C=C\CCCCC(=O)OC	i
Cc1noc(C)c1CN1CCN(C(=O)c2ccc(OC(C)C)cc2)CC1	i
O=C(c1cnn2c1OCCC2)N(CCO)c1ccccc1	i

Further compounds
SMILES	GIRK2 act
Cn1c(=O)[nH]c(=O)c2c1nc(N/N=C\C=C\c1ccc([N+](=O)[O-])o1)n2Cc1ccc(F)cc1	i
COc1ccc(-c2cncnc2-c2ccc(OCc3ccccc3)cc2O)cc1	i
O=C(CCCn1c(=O)[nH]c2ccsc2c1=O)Nc1ccc(F)cc1	i
COC(=O)c1cc(O)cc(OC)c1Oc1c(Cl)c(C)c(Cl)c(O)c1C(=O)OC	i
Cc1cc(C)c(S(=O)(=O)NC(CC(=O)O)C(=O)O)cc1N(C)S(C)(=O)=O (centres undefined)	i
Cn1c2ccccc2c(=O)c2c(=O)n(Cc3ccccc3)c(-c3cccc([N+](=O)[O-])c3)nc21	i
COc1ccc(S(=O)(=O)N2CCC(c3nc(-c4ccc(OC)cc4OC)no3)CC2)cc1	i
CCOC(=O)c1ccccc1NC(=O)Cn1cc(-c2ccccc2)c2ncn(CC)c(=O)c21	i
Cc1noc(-c2ccc(=O)n(C(C)C(=O)NCc3cccs3)c2)n1 (centres undefined)	i
CC1Oc2ccccc2OC1C(=O)NCc1cnn2ccccc12 (centres undefined)	i
c1cc(-c2nnc(-c3ccc4c(c3)OCCO4)o2)ccn1	i
Cc1cccc(N2CCn3c2nc2c3c(=O)n(CC(C)C)c(=O)n2C)c1	i
Cc1ccc(S(=O)(=O)c2nnn3c2nc(N2CCC4(CC2)OCCO4)c2ccccc23)cc1	i
O=C(Cc1ccccc1Cl)N1CCC(CSC2=NCCS2)CC1	i
COCCNS(=O)(=O)c1c(C)cc(C)c(N(C)S(=O)(=O)c2ccccc2)c1C	i
CCOC(=O)Cc1csc(NC(=O)CCc2csc3nc(C)cn23)n1	i
CCOC(=O)c1cnn2ccc(NC(=O)c3cnn(-c4ccccc4)n3)cc12	i
COc1cccc2sc(N3CC(OC(=O)c4ccc5nsnc5c4)C3)nc12	i
Cn1c(=O)n(CC(=O)C(C)(C)C)c(=O)c2c1nc1oc(-c3ccccc3)cn12	i
CS(=O)(=O)N1CCC(C(=O)NC2CCN(c3nccs3)CC2)CC1	i
Cc1cnnn1-c1ccc(-c2nc(-c3ccc(Cl)cc3)no2)cc1	i
Cn1cccc(C(=O)NCC2CCC(c3nc4ccccc4[nH]3)CC2)c1=O (centres undefined)	i
CS(=O)(=O)NCC1CCC(C(=O)N2CCN(C(=O)c3ccco3)CC2)CC1 (centres undefined)	i
O=C1OC2CC1N(C(=O)c1cc3ccccc3oc1=O)C2 (centres undefined)	i
